Assay outcomes deposited in PubChem BioAssay by National Center for Advancing Translational Sciences (NCATS).
gsp antagonist – qHTS for Antagonists of gsp, the Etiologic Mutation Responsible for Fibrous Dysplasia/McCune-Albright Syndrome: qHTS | AID 624288, 2012 | gsp-mutant cells, cAMP HTRF, 30 min; control for the full effect not named in the record | 340,000 tested, 0.4% active | Potency, µM (series often up to 76.9 µM), without a hit: at the highest dose activity change, negative = inhibition, usual class: inhibitors; active = falling curve of any shape with a large fitted effect; inconclusive = falling curve, mostly with a smaller effect; inactive = flat or rising curve; cell line not stated here;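 further: intracellular cAMP measured with PDE inhibitor Ro 20-1724 present during compound exposure; potency means the concentration at half of the fitted maximal effect; on the % scale 0 is the no-effect control and ±100 the full control effect; nearly all actives have a fitted effect of over 65% in size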
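Cells in G418 medium, seeded 16-24 h, 37C; buffer exchange to DPBS + 1 mM CaCl2, 0.5 mM MgCl2, 0.05% BSA; cpds in DMSO + […] (300 uM stock), 30 min 37C; HTRF cAMP detection.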
gsp agonist – qHTS for Agonist of gsp, the Etiologic Mutation Responsible for Fibrous Dysplasia/McCune-Albright Syndrome: qHTS; Potency, µM (series often up to 76.9 µM), for inactives: at the highest dose activation (cAMP increase), actives largely listed as activators; 340,000 tested, 0.13% active; gsp mutant cells, cAMP HTRF, 30 min; control for the full effect not named in the record; active = well fitted activation curve with a large enough effect; inconclusive = small, poorly fitted or top-dose-only effect, or another doubt; inactive = no such curve, though single readings can be large or run the other way; cell line not stated here;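 further: phosphodiesterase inhibitor Ro 20-1724 added with compounds to block cAMP breakdown; potency means the concentration at half of the fitted maximal effect; nearly all actives have a fitted effect of over 60% in size; about a fifth of the inactives were tested at one dose only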
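Cells stably selected in G418 were plated at 2000/well, grown 16-24 hr, then given compounds in DMSO with the PDE inhibitor […] (300 uM solution added) for 30 min at 37C; cAMP was read by HTRF.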
D2 potentiator – Beta-Arrestin HTS for Positive Allosteric Modulators of the Human D2 Dopamine Receptor: Potentiators; D(2) dopamine receptor (Homo sapiens), P14416; 360,000 tested, 0.23% active; AID 624464, 2012; DiscoveRx D2 beta-arrestin cells, luminescence, 90 min; 100% = 57 uM dopamine signal; potentiation, % (test concentration not listed); active = potentiation of 50% or more; inconclusive = 30% to 50%; inactive = 30% or less;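 further: compound concentration not given in the record; tested on top of an EC20 dose of dopamine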
Target sequence (P14416 whole entry, looked up): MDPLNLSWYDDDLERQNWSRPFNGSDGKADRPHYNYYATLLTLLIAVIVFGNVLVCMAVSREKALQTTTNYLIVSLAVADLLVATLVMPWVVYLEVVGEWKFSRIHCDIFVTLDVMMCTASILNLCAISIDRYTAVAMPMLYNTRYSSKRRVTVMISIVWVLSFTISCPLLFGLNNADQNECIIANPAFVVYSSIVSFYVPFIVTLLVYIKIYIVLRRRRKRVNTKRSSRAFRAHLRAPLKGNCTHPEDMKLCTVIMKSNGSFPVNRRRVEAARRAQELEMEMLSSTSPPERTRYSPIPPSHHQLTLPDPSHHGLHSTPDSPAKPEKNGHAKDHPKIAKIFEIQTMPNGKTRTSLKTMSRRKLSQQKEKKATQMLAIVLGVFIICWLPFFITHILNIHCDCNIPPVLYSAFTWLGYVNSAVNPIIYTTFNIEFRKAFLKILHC
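D2 cells co-treated with compound plus 50 nM dopamine (EC20) for 90 min at 37 deg C to detect potentiation. Beta-arrestin recruitment was read as enzyme-fragment luminescence after 1 h at ambient temperature. Full response was set by 57 uM dopamine.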
Menin MLL FP FL – qHTS Assay for Inhibitors Targeting the Menin-MLL Interaction in MLL Related Leukemias: Competition With Fluorescein Labeled MLL-derived Peptide | Fluorescence polarization, fluorescein-MLL peptide displacement from menin | FP activity change, % at 61.4 µM | 290,000 tested, under 10 active | AID 1766, 2009; inconclusive = falling polarisation curve, or a change in total fluorescence; inactive = total fluorescence flat and polarisation flat or rising; no compound was filed as active; the % refers to the polarisation; negative = inhibition;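 further: % of control where 0% means no effect; inhibitors lower the polarisation; unlabelled MLL peptide was the positive control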
TRPV1 potentiator – HTS Assay for Compounds that Act as Potentiators of the Vanilloid Receptor 1. TRPV1-expressing cells, Fluo-8 calcium influx, capsaicin EC20 potentiation; host cell line not named in the record; control for the full effect not named in the record. potentiation, % at 8.33 µM. 320,000 tested, 0.02% active; active means potentiation above 80%; inconclusive means 30% to 80%; inactive means below 30%; further: 0% is about no effect
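Fluo-8 calcium influx in TRPV1-expressing cells, kinetic read (ex 480/em 520 nm). Compound added and read 3 min for agonist activity, followed by capsaicin at EC20 final and 2 min further read for enhancement.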
ClpP mod – qHTS Assay for Activators of ClpP. Potency, µM (top dose mostly 57.5 µM), inactives show at the highest dose activity change, negative = active. 340,000 tested, 1.9% active. AID 651965, 2013. purified B. subtilis ClpP, FRET peptide cleavage, 20 min; active = well fitted falling curve with a large enough effect; inconclusive = small, poorly fitted or top-dose-only effect; inactive = no such curve, though single readings can be large or run the other way; further: potency means the concentration at half of the fitted maximal effect; the source files actives as falling curves though it sought activators and does not explain the sign; nearly all actives have a fitted effect of over 65% in size; many hits overshoot -100%
Target sequence (P80244 whole entry, looked up): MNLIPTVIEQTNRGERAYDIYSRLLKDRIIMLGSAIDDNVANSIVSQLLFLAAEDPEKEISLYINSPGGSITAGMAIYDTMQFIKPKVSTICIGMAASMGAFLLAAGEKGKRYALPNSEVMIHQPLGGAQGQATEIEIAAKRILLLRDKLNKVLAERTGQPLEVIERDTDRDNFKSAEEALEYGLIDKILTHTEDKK
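FRET quenching reversal measured ClpP activation: 10 microg/mL B. subtilis ClpP at pH 8 with the FRET-FV decapeptide, read at 430 nm after 320 nm excitation. The 20-min minus 0-min signal was scaled between DMSO/no-enzyme wells and ADEP (5.8 microM final).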
Sfp inh – qHTS Assay for Inhibitors of Bacillus subtilis Sfp phosphopantetheinyl transferase (PPTase); Potency, µM, inactives show max response, negative = inhibition, hits mostly inhibitors; 310,000 tested, 3.5% active; Biochemical Sfp PPTase activity, qHTS; active means well fitted inhibition curve with a large enough effect; inconclusive means small, poorly fitted or top-dose-only effect, or another doubt; inactive means no such curve, though single readings can be large or run the other way;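 further: the enzyme is Sfp with the accession as filed and its product quenches rhodamine fluorescence; potency means the concentration at half of the fitted maximal effect; 0% = enzyme reaction without inhibitor and -100% = no enzyme wells; top concentration of the series not given in the record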
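With Hepes-Na pH 7.6 buffer containing 10 mM MgCl2, Sfp (15 nM) modified BHQ-2-YbbR (12.5 uM) using rhodamine-CoA (5 uM). Two reads 30 minutes apart at 525/598 nm yielded each well's rate.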
The depositor's hits bear a star; ? = inconclusive; . = not tested or not shown; & = joins results of further samples; [ ] = remark or other dose.

Sequence of screens – gsp antagonist	gsp agonist	D2 potentiator	Menin MLL FP FL	TRPV1 potentiator	ClpP mod	Sfp inh
1) O=C(N/C(=C/c1ccco1)C(=O)N1CCOCC1)c1ccc([N+](=O)[O-])cc1
 : -6.1%	-15.7%	-5.4	-1.1	-3.5	0.0%	5.8%
2) O=C(CSc1nnc(-c2ccc([N+](=O)[O-])cc2)o1)Nc1ccccn1
 : 6.2%	21.0%	3.5	0.2	5.8	0.0%	-1.8%
3) Cn1c(CNC(=O)c2ccc3c(c2)OCO3)nnc1SCC(=O)Nc1ccccc1Cl
 : 11.3%	-3.5%[15.4 µM]	-4.9	-5.0	4.6	.	23.8%
4) CCOc1ccc(NS(=O)(=O)c2ccc(C(=O)NC3CCC(O)CC3)cc2)cc1 (stereo not given)
 : 0.2%	-15.8%	-16.7	.	-6.7	1.1%	.
5) CC(C)OC(=O)CCC(=O)Nc1nc2ccccc2s1
 : 11.4%	-0.8%	1.4	1.3	0.3	-1.9%	0.3%
6) Cc1cccc(C(=O)Nc2ccc3c(c2)nc(C)n3C)c1
 : -7.4%	?	-2.4	-7.1	-13.7	.	4.9%
7) CC(C)(C)c1nnc(NS(=O)(=O)c2ccc([N+](=O)[O-])cc2)s1
 : -23.0%	-5.5%	?	-1.7	-0.6	-0.5%	-70.7%
8) NC(=O)COC(=O)CC1CC2CCC1C2 (stereo not given)
 : -1.0%	0.4%	-2.4	-0.1	7.1	.	6.7%
9) O=C(Cc1ccccc1)NC(NNc1ccccc1)(C(F)(F)F)C(F)(F)F
 : -32.7%	-3.0%	-7.1	-0.4	15.6	-3.5%	8.6%
10) CC(=O)c1ccc(S(=O)(=O)NCCC(=O)OC(C)C(=O)Nc2ccc(F)cc2)cc1 (stereo not given)
 : 5.3%	2.4%[15.4 µM]	-67.3	.	-3.7	.	.
11) O=C(c1cccc([N+](=O)[O-])c1)N1CCN(c2n[nH]c(=O)[nH]c2=O)CC1
 : 4.5%	2.7%[15.4 µM]	0.0	4.8	-0.1	.	9.5%
12) CC(=O)Nc1cccc(C(=O)N2CCN(Cc3ccccc3)CC2)c1
 : 5.6%	6.5%	-13.1	3.2	-1.4	-4.9%	?
13) COc1cccc(CNC(=S)Nc2cc(C)ccc2C)c1
 : 6.3%	8.1%[15.4 µM]	-13.3	5.6	-17.1	.	-1.3%
14) O=C(CN1CCCCC1)N/N=C/c1ccccc1Br
 : 11.8%	-33.2%[inhibitor]	-7.7	-6.6	-1.6	.	11.0%
15) OCc1nnc2c3ccccc3c(-c3ccccc3)nn12
 : 5.3%	42.5%	-8.0	2.8	11.0	-1.0%	21.0%
16) CC(=O)Nc1ccc(C(=O)/C=C/c2ccc[nH]2)cc1
 : -9.3%	21.4%[15.4 µM]	-7.6	-2.7	.	.	?
17) O=C(Nc1cccc(C(=O)O)c1)/C(=C\c1ccc2c(c1)OCO2)NC(=O)c1ccc(Br)o1
 : 3.7%	-0.4%[15.4 µM]	-13.9	6.2	-0.6	.	-1.7%
18) O=C(NCC(c1ccco1)N1CCCC1)c1cc2ccccc2s1 (stereo not given)
 : 5.5%	3.8%	-2.9	.	-2.3	-3.4%	.
19) Nc1ncc(Br)cc1S(=O)(=O)NCCC(=O)NCc1ccc(F)cc1
 : 8.4%	?	-14.3	.	-9.0	-22.0%	10.9%
20) Nc1[nH]n2c(=O)c3c(nc2c1N=Nc1ccc(Cl)cc1)CCCC3
 : 0.0%	-30.3%[inhibitor]	-5.5	4.9	-9.7	-0.7%	9.9%
21) O=C(NC1CCCCC1)C1CC(=O)N(c2cccc([N+](=O)[O-])c2)C1 (stereo not given)
 : -3.8%	-48.9%[inhibitor]	-5.0	-8.4	-24.4	.	16.6%
22) COc1ccc(CC(=O)NCC(=O)N/N=C/c2sccc2C)cc1
 : 2.6%	11.1%	6.6	.	10.0	-1.5%	6.3%
23) O=Cc1ccccc1OCCN1CCCC1=O
 : 6.2%	18.7%	-12.4	2.5	6.9	-29.6%	6.3%
24) Cc1ccc2c(c1)/C(=C/c1ccccc1)C(=O)N2
 : -4.5%	-27.5%[15.4 µM]	-10.4	-3.5	3.8	.	-9.0%
25) CC(C)CN(C(=O)CSc1n[nH]c(-c2cccs2)n1)C1CCS(=O)(=O)C1 (stereo not given)
 : 1.6%	9.1%	-9.9	.	1.3	?	.
26) CC(=O)N1CC2(CC(c3ccccc3F)=NO2)CN1c1ccc(Cl)cc1 (stereo not given)
 : .	?	0.7	.	.	-2.8%	.
27) COC(=O)c1cn(NC(=O)c2cc([N+](=O)[O-])ccc2F)c(=O)c2ccccc12
 : -21.4%	2.0%[15.4 µM]	1.6	4.7	5.6	.	2.6%
28) CN(C)c1ccc(C(=O)OCC(=O)NCC2CCCO2)cc1 (stereo not given)
 : -2.4%	-5.2%	-14.2	0.3	-2.4	0.2%	8.6%
29) COc1ccc(C(CCN2CCCC(C)C2)c2c(OC)cc(OC)c3c(-c4ccccc4)cc(=O)oc23)cc1 (stereo not given)
 : 10.6%	-9.0%	-26.0	3.4&-0.2	-4.8	-0.7%	?
30) COc1ccc(NC(=S)NCCc2ccc(S(N)(=O)=O)cc2)c(OC)c1
 : 8.3%	-0.8%[15.4 µM]	-5.1	0.9	17.4	.	?
31) Cc1ccc(-c2nc3ncccc3o2)cc1NC(=S)NC(=O)c1ccco1
 : -8.5%	8.0%	2.0	0.6	4.1	.	4.5%
32) CCOc1ccc(C(C(=O)NC2CCCCC2)N(C(=O)c2ccco2)c2ccc(-n3cnnn3)c(C)c2)cc1 (stereo not given)
 : -11.7%	0.6%	-7.0	-0.8	-40.0	1.3%	7.2%
33) Cc1ccc(C(=O)CC(C(=O)O)P(=O)(c2ccccc2)c2ccccc2)cc1 (stereo not given)
 : 11.1%	-9.3%[15.4 µM]	-1.9	-0.2	2.6	.	17.8%
34) O=C(Nc1ccc2c(c1)OCO2)N1CCN(c2ncccn2)CC1
 : -1.6%	4.4%	2.8	1.3	-0.6	-0.6%	2.6%
35) CCN(CC)c1ccc(NC(=O)/C=C/c2cc(Br)ccc2OC)cc1
 : -2.7%	-2.5%	-12.9	5.0	-5.6	-2.1%	3.7%
36) C#CCOC(=O)CCCC(=O)Nc1ccccc1OC
 : 0.7%	-28.9%	-1.9	4.6	11.6	-0.8%	6.1%
37) CCOc1ccc(S(=O)(=O)N2CCCCC2)cc1NC(=O)CC1OC(=O)c2ccccc21 (stereo not given)
 : -5.5%	6.0%[15.4 µM]	-5.3	.	0.8	1.5%	.
38) Cc1cc(NC(=O)CN(C)CCOc2ccccc2)ccc1Br
 : -21.7%	-4.6%[15.4 µM]	-8.8	-1.8	-17.0	0.4%	-29.1%
39) N#CC1=C(N)N(c2ncn[nH]2)C2=C(C(=O)CCC2)C1c1ccccc1 (stereo not given)
 : 0.3%	9.5%	-1.6	7.5	13.9	.	0.8%
40) Cc1cc(C(=O)Nc2ccccc2N2CCOCC2)c(C)o1
 : 0.5%	1.8%[15.4 µM]	2.8	1.5	-0.7	.	?
41) Cc1ccc(NC(=O)CCOc2ccccc2C)cc1C
 : 0.9%	3.5%	-6.6	4.4	-4.8	.	15.5%
42) Cc1oc(-c2ccccc2Cl)nc1CS(=O)CC(=O)NCc1ccc(Cl)cc1 (stereo not given)
 : -1.4%	30.7%	-10.8	3.0	15.2	-1.5%	7.5%
43) CCc1nnc(NC(=O)Cc2ccc(Br)cc2)s1
 : 10.1%	-0.5%[15.4 µM]	-2.4	1.1	?	.	-4.3%
44) C=C1C(=O)O[C@@H]2C[C@@H](C)[C@@H]3C=CC(=O)[C@@]3(C)[C@@H](OC(C)=O)[C@H]12
 : 5.1%	.	-16.7	-0.9	13.6	0.1%	?
45) Cc1ccc(C)c(OCCN2C(=O)NC3(CCc4ccccc4C3)C2=O)c1 (stereo not given)
 : -8.0%	-29.7%	-26.6	4.6	-14.3	1.5%	-15.6%
46) COc1ccc(-c2[nH]nc(-c3ccccc3)c2-c2nc3ccccc3[nH]2)cc1
 : -10.2%	-36.5%[inhibitor]	-21.9	0.8	-18.0	25.1µM*	14.8%
47) N#Cc1c(-c2ccccc2)cc2nc3ccccc3n2c1N
 : 1.5%	12.8%	-0.9	0.2	-2.2	.	-4.2%
48) CC(=NNC(=O)c1ccncc1)c1ccccc1Cl
 : -5.6%	-17.5%	-3.1	.	.	.	.
49) Cc1ccc(NC(=O)COC(=O)Cc2c[nH]c3ccccc23)cc1
 : .	-29.9%	-13.6	.	.	0.9%	.
50) COc1ccccc1NC(=O)Nc1ccc2c(c1)nc(C)n2C
 : 4.7%	2.5%[15.4 µM]	-8.3	3.4	3.0	.	4.3%
51) COc1ccc(NC(=O)N(C)C[C@H]2Oc3ccc(NS(=O)(=O)c4cccs4)cc3C(=O)N([C@H](C)CO)C[C@@H]2C)cc1
 : 2.8%	-52.7%[inhibitor]	-3.0	.	.	-0.3%	.
52) CCOC(=O)C(NC(=O)c1cccc(Cl)c1)(Nc1sc2c(c1C(N)=O)CCC2)C(F)(F)F (stereo not given)
 : -18.4%	15.0%	2.5	2.1	6.0	6.9%	-25.6%
53) Cc1ccc(C(=O)NCC(=O)NCC(=O)OCC(=O)c2ccc(F)cc2)cc1
 : 6.8%	-2.7%[15.4 µM]	-4.6	0.0	-7.9	1.1%	21.6%
54) O=C(O)c1cc(-c2ccccc2Cl)n(-c2ccc(F)cc2)n1
 : -6.2%	-44.6%[inhibitor]	-0.2	-1.1	15.2	0.6%	24.4%
55) CCOC(=O)C(NC(=O)c1ccccc1Cl)(Nc1ccc(C)c(C)c1)C(F)(F)F (stereo not given)
 : -10.8%	15.0%	-8.8	6.0	-0.7	-0.6%	6.2%
56) C=CCNc1ncnc2c1cnn2-c1cccc(C)c1
 : -8.9%	-3.4%	-1.4	2.3	-11.6	4.5%	14.3%
